VACV Venus inh: vaccinia inhibition (Venus reporter); Vaccinia virus Venus reporter expression, fluorescence; Potency, µM (doses to about 36.5 µM), inactives show at the top dose activity change, negative = inhibition, most hits filed as inhibitors; hit rate 0.46% among 330,000; AID 720580; active means well fitted inhibition curve with a large enough effect; inconclusive means small, poorly fitted or top-dose-only effect; inactive means no such curve, though single readings can be large or run the other way; tested in A549 cells; further: nearly all actives have a fitted effect of over 30% in size; inactives centre near -10
VACV mCherry inh: inhibitors of vaccinia virus infection (mCherry reporter signal); Vaccinia virus mCherry reporter infection, fluorescence; about a quarter of the inactives have no number; Potency, µM (highest dose often 36.5 µM), without a hit: at the highest dose activity change, negative = inhibition, hits mostly inhibitors; hit rate 0.63% among 310,000; AID 720579; active = well fitted inhibition curve with a large enough effect; inconclusive = small, poorly fitted or top-dose-only effect; inactive = no such curve, though single readings can be large or run the other way; tested in A549 cells; further: nearly all actives have a fitted effect of over 35% in size; inactives centre near -10
The depositor's hits bear a star; i = inactive; ? = inconclusive; . = no result given; & = joins results of further samples; [ ] = remark or other dose. On the % scale 0 is the no-effect control and ±100 the full control effect; potency means the concentration at half of the fitted maximal effect. Hits appear at their usual frequency, and some 0.82% of all compounds hit somewhere here.

SMILES	VACV mCherry inh	VACV Venus inh
CCOC(=O)c1nn(-c2ccccc2F)c2nc(Nc3ccccc3)cc(=O)n12	-1.1%	-13.4%
Cc1cccc(NC(=O)C2CCCN2C(=O)NC2CCCCC2)c1 (centres undefined)	i	-5.8%
N=C(N)c1ccc(-c2ccc(-c3ccc(C(=N)N)cc3)o2)cc1	-19.5%	-17.1%
COCCN1C(=S)NC(c2cccc(C(F)(F)F)c2)C(C(=O)N2CCOCC2)=C1C (centres undefined)	-4.4%	-3.4%
COc1ccc(NC(=O)c2cc(-c3ccccn3)nc3ccccc23)c(OC)c1	i	-2.0%
Cc1ccc(-c2nc(SC(C)C(=O)NC3CC3)n[nH]2)cc1 (centres undefined)	i	-12.1%
COc1ccc(C(=O)COc2ccccc2C#N)cc1	i	-12.8%
Cc1cc(NC2CCCC2)n2ncc(-c3ccccc3)c2n1	3.0%	-5.8%
CCOC(=O)c1c(NC(=O)c2cc(-c3cccc(O)c3)on2)sc(C(C)=O)c1C	i	-16.1%
Cc1nnc(NC(=O)CSc2nnc(Cc3cccn3C)n2-c2ccccc2)s1	i	-6.4%
CC1=Nc2cc(C(=O)NCCc3ccccc3)ccc2Sc2c(C)ccc(C)c21	-26.3%	-29.2%
Cc1ccc(NC(=O)CSc2nnc(-c3ccco3)o2)c(C)c1	-4.4%	-8.1%

SMILES	VACV mCherry inh	VACV Venus inh
CCOc1ccc(CNC(=O)C2CCCN(c3nnc(C)c4c(C)n(-c5ccccc5)nc34)C2)cc1 (centres undefined)	-18.3%	-14.1%
CCOC(=O)N1CCN(C2CCCN(C(=O)c3ccccc3C(F)(F)F)C2)CC1 (centres undefined)	i	-4.6%
Cc1sc2ncnc(N[C@@H](CCC(=O)O)C(=O)O)c2c1C	.	-19.2%
CCCc1nc2c(=O)[nH]c3ccccc3c2o1	-10.7%	-12.5%
O=C(O)c1cnn2c1C(=O)N(Cc1cccs1)CC2	-6.0%	2.5%
Cc1ccc(NC(=O)CCC(=O)NNC(=S)Nc2ccc(F)cc2)c(C)c1	i	-1.4%
COc1cc(OC)cc(C(=O)N/N=C/c2ccc(OC)c(COc3ccc(F)cc3)c2)c1	-17.8%	-22.3%
C1=Cc2ccccc2/C1=C\c1cc[cH-]c1.[Fe+2].c1cc[cH-]c1	-12.1%	5.6%
Cc1ccc(NC(=O)CNc2cccc(C)c2C)c(C)c1	i	-7.9%
CC(OC(=O)CCN=C1NS(=O)(=O)c2ccccc21)C(=O)Nc1ccc(F)cc1 (centres undefined)	-18.4%	-8.8%
CN1CCC(N(C)C(=O)c2cccc(S(=O)(=O)N3CCOCC3)c2)CC1	-12.0%	-7.6%
NC1=NC(=O)C(CC(=O)NCc2ccccc2)S1 (centres undefined)	i	0.0%

SMILES	VACV mCherry inh	VACV Venus inh
Cc1ccc(C(=O)NN2C(=O)/C(=C/c3cccn3C)SC2=S)cc1	-14.2%	1.8%
CCN1CCC(N(Cc2ccc(F)cc2)C(=O)Nc2cc(Cl)ccc2C(=O)OC)CC1	0.7%	-23.0%
C=Cc1ccc(Cn2c(=O)cc(C)c3c(C)nn(C)c32)cc1	-17.0%	-8.4%
CCN(CC)CCNC(=O)c1cc([N+](=O)[O-])c(N(C)C)cc1OC	i	0.3%
Cc1nc2c(-c3ccccc3)c(C)nn2c(C)c1CCC(=O)N1CCN(c2ccc(F)cc2)CC1	-12.3%	-9.5%
O=C(O)c1c[nH]c2c([N+](=O)[O-])cccc2c1=O	-13.5%	-1.5%
COc1ccc(NS(=O)(=O)c2ccc3c(c2)oc(=O)n3C)cc1Cl	-6.0%	-3.8%
O=C(CSc1nnc(CN2CCCCCC2=O)n1-c1ccccn1)NCC(F)(F)F	-4.0%	-1.7%
Cc1ccc(C)c(Cn2c(=O)n(Cc3ccccc3)c(=O)c3c(C)c(C)sc32)c1	-14.2%	-6.1%
Cc1ccc(S(=O)(=O)NNC(=S)NC(=O)c2ccc([N+](=O)[O-])cc2)cc1	-17.3%	-18.0%
COc1ccc(C(CNc2ccc(C(F)(F)F)cn2)N(C)C)cc1OC (centres undefined)	-10.0%	-3.2%
O=S1(=O)CCC(N=Cc2cc(Br)ccc2O)C1 (centres undefined)	.	-14.5%

Next part, starting with the last four of the part before.
SMILES	VACV mCherry inh	VACV Venus inh
Cc1ccc(C)c(Cn2c(=O)n(Cc3ccccc3)c(=O)c3c(C)c(C)sc32)c1	-14.2%	-6.1%
Cc1ccc(S(=O)(=O)NNC(=S)NC(=O)c2ccc([N+](=O)[O-])cc2)cc1	-17.3%	-18.0%
COc1ccc(C(CNc2ccc(C(F)(F)F)cn2)N(C)C)cc1OC (centres undefined)	-10.0%	-3.2%
O=S1(=O)CCC(N=Cc2cc(Br)ccc2O)C1 (centres undefined)	.	-14.5%
CC(=O)Nc1ccc(N(C(=O)Cc2c[nH]c3ccccc23)C(C(=O)NC2CCCCC2)c2ccco2)cc1 (centres undefined)	-34.5%	?
COCCSc1ccccc1C(=O)Nc1cc(C)on1	-9.3%	-4.7%
Cc1cccc(N2CCN(C(=O)c3ccc4c(c3)CCN4S(=O)(=O)c3ccccc3)CC2)c1C	-10.9%	?
CNC(=S)NNC(=O)c1sc(-c2cc(C)on2)nc1C	-8.3%	-8.4%
CC(=O)O[C@H]1CC[C@H]2[C@@H]3CCc4cc(O)ccc4[C@H]3CC[C@]12C	i	-15.7%
CCOc1ccc(N(C)C(CNS(=O)(=O)c2ccccc2)c2ccccc2)cc1 (centres undefined)	-25.2%	-7.6%
CCOC(=O)C1=C(C)c2ccccc2OC1(C(=O)OCC)C(C)C (centres undefined)	i	-18.6%
C/C(=N\NC(=O)c1c(Cl)c(C)nn1C)c1ccc(NC(=O)C2CCC2)cc1	-26.9%	-25.6%
CN1CCN(NC(=S)Nc2ccc(Oc3ccccc3)cc2)CC1	-19.3%	-7.7%
N#C/C(=C/C1=C(N2CCOCC2)C(=C/c2ccc(Cl)cc2)/CC1)C(=O)Nc1ccccc1F	-8.6%	42.1%[activator]
N#CCCN(C(=O)COC(=O)CNC(=O)c1ccc(-c2ccccc2)cc1)c1ccc(F)cc1	-11.8%	-2.8%
CCN(CC)CCC(c1ccc2c(c1)OCO2)c1c(OC)cc(OC)c2c(-c3ccccc3)cc(=O)oc12 (centres undefined)	?	?

SMILES	VACV mCherry inh	VACV Venus inh
O=C(CCCC1=NS(=O)(=O)c2ccccc2N1)OCc1ccc(Cl)cc1	-12.8%	-13.8%
O=C(O)CC(=O)Nc1ccccc1C(=O)O	i	-19.5%
O=C(CC1CC2CCC1C2)N1CCN(S(=O)(=O)c2ccc(F)cc2)CC1 (centres undefined)	i	-23.2%
COc1ccc(Nc2nc(C)cc(C)n2)cc1Cl	i	-15.8%
COc1ccc2c(CN(C)c3ccccc3)cc(=O)oc2c1	-28.3%	-10.4%
CC(C)=CCN1CCN(Cc2cccn2-c2ncccn2)CC1CCO (centres undefined)	i	-4.6%
O=C(NN1C(=O)c2ccc(-c3ccc4c(c3)C(=O)N(NC(=O)c3cccnc3)C4=O)cc2C1=O)c1cccnc1	-15.7%	-15.0%
O=C(CC1CCCCC1)NCC1CCCO1 (centres undefined)	i	-13.4%
COc1cccc(NC(=O)CN(C)C(=O)Cn2cnc3ccccc3c2=O)c1	i	-11.8%
COc1ccc(CCNCc2ccc(OCc3ccc(Cl)nc3)c(OC)c2)cc1OC	.	-11.7%
Cc1ccc(/C=C/C(=O)C2C(=O)c3ccccc3C2=O)cc1	i	-10.6%
CCC(C)(C(=O)NC1CCCC1)N(Cc1ccco1)C(=O)Cc1cccs1 (centres undefined)	-11.7%	-6.5%

SMILES	VACV mCherry inh	VACV Venus inh
Cc1ccc(S(=O)(=O)N2CCCC2C(=O)OCc2nc3sc(C)c(C)c3c(=O)[nH]2)cc1 (centres undefined)	-9.1%	-11.0%
COc1ccccc1N1CCN(c2ncc3c(n2)CCN(Cc2ccccc2C)C3)CC1	-7.5%	-18.9%
O=C(NCCOCCn1c(=O)oc2ccccc21)Nc1ccc(F)cc1F	15.1%	21.8%
O=S(=O)(c1ccc(Br)cc1)c1nc(-c2ccccc2)oc1NCCN1CCOCC1	-15.3%	-2.1%
Cn1c(C(=O)NCCc2ccccc2)cc2cc(S(=O)(=O)N3CCCCC3)ccc21	-25.7%	-25.8%
O=C(Cn1cnc2ccccc21)c1ccccc1	-12.7%	11.8%
C/C=C/c1ccc(OCCOc2ccc(C=O)cc2OC)c(OC)c1	i	-7.0%
O=C(CSc1nnnn1-c1ccc(O)cc1)NC1CCCCC1	-11.3%	-4.3%
CC(C)Cn1c2c(c(O)c(C(=O)Nc3nc4ccccc4s3)c1=O)CCCC2	-7.8%	-5.8%
Cc1cc(N2C(=O)c3ccc(C(=O)Nc4ccc(O)cc4C(=O)O)cc3C2=O)no1	i	-1.6%
CC(c1n[nH]c(=S)n1-c1ccc(Cl)cc1)N(C)C (centres undefined)	-14.8%	-2.7%
O=C(NCCS(=O)(=O)N1CCN(c2ccccc2)CC1)C(c1ccccc1)c1ccccc1	-25.1%	-20.7%

SMILES	VACV mCherry inh	VACV Venus inh
Cc1cc(C)c2nc(N(CCCN(C)C)C(=O)c3ccc(S(=O)(=O)N4CC(C)OC(C)C4)cc3)sc2c1 (centres undefined)	-8.2%	-17.1%
CCCCNC(=O)N(C)c1nc2ccccc2s1	-6.3%	-15.3%
O=C(Oc1coc(CSc2ncccn2)cc1=O)c1ccco1	-9.3%	18.3%
c1ccc(-c2cc3c(N4CCN(c5ccccc5)CC4)ncnc3s2)cc1	-14.4%	-3.6%
CC1Cc2ccccc2N1S(=O)(=O)c1nnc(NC(=O)c2cccc(F)c2)s1 (centres undefined)	-18.6%	-23.6%
Cc1ccc(C)c(NC(=S)NCCc2cnc[nH]2)c1	i	4.3%
C#CCOCCOCCOCCNc1nc(N2CCN(C(=O)Cn3cc(CCO)nn3)CC2)nc(N2CCN(C(=O)[C@H]([C@@H](C)CC)n3cc(CCCCN)nn3)CC2)n1	-7.5%	1.8%
CCc1nc2ccccc2n1CC(=O)NC1CCS(=O)(=O)C1 (centres undefined)	-2.0%	-6.8%
Cc1cc(C(=O)COC(=O)c2nn(C)c(=O)c3ccccc23)c(C)n1C	-8.9%	-10.3%
Cc1ccccc1C(=O)NC(=S)Nc1sc2c(c1C#N)CCC(C)C2 (centres undefined)	i	-13.3%
COc1ccc(CC(=O)OC(C)CN2CCCC2)cc1 (centres undefined)	?	-4.8%
COc1ccc(Nc2cnn(-c3nc4ccccc4s3)c(=O)c2Cl)cc1	-15.5%	-23.0%

SMILES	VACV mCherry inh	VACV Venus inh
Cc1ccccc1OCCC(=O)Nc1ccc(Cl)cc1F	-14.4%	-0.8%
CC(C)CCCC1(C)C=Cc2c(O)c3c(c(CCC(C)C)c2O1)OC12C(CC4CC1C(C)(C)OC2(CCC(C)C(=O)O)C4O)C3=O (centres undefined)	-21.5%	-13.7%
Cc1cc(C)c(NS(=O)(=O)c2ccc3c(c2)NC(=O)CCS3)c(C)c1	i	-11.7%
Cc1cc(C(F)F)n2ncc(C(=O)NCCc3ccc(Cl)cc3)c2n1	-21.5%	-14.6%
CCOc1ccc(CNC(=O)c2cnc3c(C)cccn3c2=O)cc1	-6.5%	-2.0%
COc1ccc(-c2nc(-c3ccc4c(c3)OCO4)[nH]c2-c2ccc(OC)cc2)cc1	?	?
Cc1c(NC(=O)Nc2ccccc2C(F)(F)F)c(=O)n(-c2ccccc2)n1C	-9.8%	-17.2%&-5.3%
CC1CCN(c2ccc(-c3nc(-c4ccccc4)no3)cc2[N+](=O)[O-])CC1	-9.1%	-13.2%
COCCNC(=O)/C(C#N)=C\c1ccc(CNS(=O)(=O)c2ccc(C)cc2)o1	i	-10.9%
CCCCOP(=O)(OCCCC)/C(C#N)=C(/C)O	.	-6.0%
CCOc1ccc2nc(C(=O)N3CCCC(C)C3)sc2c1 (centres undefined)	-4.8%	-15.0%
Cc1c(C(=O)Nc2ccc3c(c2)CCC3)cccc1[N+](=O)[O-]	-20.6%	-17.9%

SMILES	VACV mCherry inh	VACV Venus inh
COc1ccc(N2CCN(C(=O)c3ccc(CS(=O)(=O)c4ccc(OC)cc4)o3)CC2)cc1	-6.2%	-7.9%
O=C(c1ccco1)N1C(=O)c2cccc3cccc1c23	-24.1%	-14.0%
COc1cc2ccccc2cc1C(=O)N1CCN(c2nc3c(C)cc(C)cc3s2)CC1	-16.1%	-13.4%
CCOc1ccc(OCC)c(NC(=O)CCCN2C(=S)NC(C)(C)CC2C)c1 (centres undefined)	i	-9.9%
CC1(OC(=O)CCc2ccccc2)C(=O)C=C2C=C(c3ccc(C#N)cc3)N(Cc3ccco3)C=C2C1=O (centres undefined)	-28.5%	-3.1%
O=C1N/C(=C/c2cccn2-c2ccc(F)cc2)C(=O)N1Cc1ccccc1	-15.6%	-19.5%
CCC1CN(C(=O)N2CCC(C(=O)N(C)Cc3ccccc3)CC2)c2ccccc2O1 (centres undefined)	-3.3%	-14.4%
CN(CC(=O)Nc1ccccc1C(F)(F)F)C(=O)CN1C(=O)C2CCCCC2C1=O (centres undefined)	-9.9%	-3.7%
Cc1ccc(C(=O)Oc2cc(-c3ccc4c(c3)OCO4)cc(=O)c3c(C)oc(C)c23)cc1	-0.5%	10.7%

Screening data from PubChem.
